Mtb hypoxia inh = PubChem AID 1159583. M. tuberculosis hypoxia-regulated fluorescent reporter, fluorescence. fluorescence inhibition, % (concentration not given with the values). actives 0.1% (n = 300,000);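 active = 35 to 45% if threefold the growth effect, above 45% if 1.5-fold the growth effect; inactive = the rest, general growth blockers included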;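 also: wells of about 50 µL received 100 nL stock; 0% = vehicle wells and 100% = reference inhibitor wells; whole bacteria with a GFP reporter of the hypoxia response; strong numbers were not always called active; many hits fall short of the cut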
BJeLR lethal = MLPCN primary cell-based screen for lethality selective to Ras in HRASV12 cells | BJeLR (HRASV12) viability, CellTiter-Glo ATP luminescence, 48 h; reference of the scale not given here | inhibition, % (concentration not given with the values) | actives 0.17% (n = 300,000) | AID 1554, 2009;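 active = replicate mean above 50%; inconclusive = above 50% but judged a plate artefact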;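 also: 50 nL library stock added to about 25 µL; numbers are from one replicate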
PrP 5UTR inh = inhibition of PrP 5' UTR reporter expression; cell-based PrP 5' UTR mRNA reporter, plate reader; inhibition, % (test concentration not listed); actives 0.35% (n = 340,000); AID 488862, 2010;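 active = every replicate at 50% or more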;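 also: 0 = median of the neutral control wells; tested in H4 reporter cells; numbers are from one replicate; inactives centre near -14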
RN4220 kill = growth inhibition of S. aureus RN4220, primary screen, OD600; 16 h; inhibition, % (no concentration beside the values); actives 0.33% (n = 330,000); AID 1259311, 2017;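 active = z-score of -3 or lower and OD600 up to 0.18 on both plates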;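 also: plate controls were untreated cells for no effect and reference antibiotic for full effect; stock transfer was 100 nL into about 80 µL; one replicate is shown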
Bead autofluor = counter-screen for toxin protease inhibitors: compound fluorescence; compound autofluorescence counterscreen, microsphere flow cytometry; active compounds read high; fluorescence intensity (no concentration beside the values); actives 3.1% (n = 360,000); AID 624483;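 active = at least 3 SD above the mean of all compounds, about 16000 in these data; inconclusive = too few beads counted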;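 also: 100 nL of 1 mM stock went into each well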
Sa ugtP lethal = growth inhibition of ugtP-null S. aureus, primary screen, RN4220 ugtP deletion, OD600; growth inhibition, % (no concentration beside the values); actives 0.54% (n = 330,000); 16 h; some inactives read as strong as hits;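 active = z-score under -3 and OD600 up to 0.15 on both plates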;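 also: plate controls were untreated wells for no effect and antibiotic for full effect; wells of about 80 µL received 100 nL stock; the first replicate is given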
Mtb hypoxia inh growth = second read-out of Mtb hypoxia inh, no call of its own (marks repeat the call); growth inhibition, %; measured here: M. tuberculosis growth (absorbance);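 0% = vehicle and 100% = reference antibiotic; read after six days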
Active calls of the source: *; u = inconclusive; x = not tested or not shown.

Below each SMILES: Mtb hypoxia inh, Mtb hypoxia inh growth, BJeLR lethal, PrP 5UTR inh, RN4220 kill, Bead autofluor, Sa ugtP lethal
CCOc1ccc(NC(=O)C2CCCN(c3cnccn3)C2)cc1 (configuration not stated)
    1, -5, 5, -17, 2.4, x, 4
Cc1c(Cl)c([N+](=O)[O-])nn1CC(=O)N1CCCc2ccccc21
    x, x, -14, -22, x, 2158, x
O=c1ccnc(SCCc2ccc([N+](=O)[O-])cc2)[nH]1
    12, 5, 4, -21, 4.7, 6095, 16
CCOc1ccc(S(=O)(=O)N2CCCCC2)cc1NC(=O)c1c(CC)noc1C
    6, -2, -8, -13, -1.6, 5935, 3
O=[N+]([O-])c1ccc(NN=Cc2cccc(O)c2)cc1
    -2, -3, x, x, -7.3, x, -24
O=C(NC(=C(Cl)Cl)P(=O)(c1ccccc1)c1ccccc1)c1ccccc1
    7, 6, -4, -26, 0.8, 7633, 1
CCCCCNCC(=O)Nc1cc(C(F)(F)F)ccc1OCCOC
    2, 11, 1, -30, -2.4, 4590, -3
O=C(CN1CCOCC1)NNc1c2ccccc2nc2ccccc12
    12, 6, 2, -14, 3.2, 6040, 5
COCCn1c(SCc2nc3cc(OC)c(OC)cc3c(=O)[nH]2)nnc1-c1ccncc1
    -4, -4, -11, -6, 1.7, 3554, -1
CN(C)S(=O)(=O)c1cccc(C(=O)NC(=S)N(CCC#N)Cc2cccnc2)c1
    12, 5, -3, -16, 7.4, 3143, 6
CNC(=O)c1sc(Nc2cc(C)ccc2C)nc1C
    2, 6, 4, -22, 5.9, 3787, 0
O=C(NNc1nc2ccccc2s1)c1ccc(F)cc1
    -1, 3, -1, -29, 1.3, 10313, 0
O=C(CCc1nnc2n(Cc3ccccc3)c(=O)c3ccccc3n12)NCCCN1CCCCC1
    3, 6, -4, 4, 2.2, 5529, 1
COc1ccc(NC(=O)CSc2nnc(-c3ccco3)c(-c3ccco3)n2)cc1OC
    6, 3, -6, 7, -5.8, 2830, -15
Cc1cc(NC(=O)COC(=O)c2c(Cl)cccc2Cl)no1
    3, 5, x, -8, 1.0, 5237, 0
O=[N+]([O-])c1ccc(COc2cccc3cccnc23)cc1
    17, 16, -2, -12, 4.5, 3758, 2
CCCC=NNc1nnc(Cc2ccccc2)c(=O)[nH]1
    9, 13, x, x, 1.5, x, 4
ONC(=Nc1ccc(Cl)cc1)c1ccccc1
    12, 6, 3, -16, 4.3, 22689*, -6
CCn1cc(C(=O)NCc2ccco2)c(=O)c2cc(S(=O)(=O)N3CCCCCC3)ccc21
    -1, -2, 17, -14, 1.1, 21862*, -1
CC(=NNC(=O)OC(C)(C)C)c1ccc[nH]1
    13, 0, x, x, 5.6, x, -2
COc1cccc(/C=N/NC(=O)c2cc3c(OC)cccc3[nH]2)c1OC
    x, x, 12, -31, x, 2382, x
CCn1cc(/C=N\NC(=O)Cc2ccc([N+](=O)[O-])cc2)c(C)n1
    x, x, -1, -33, x, 9096, x
CCc1nc2ccc(C(=O)NCCCN3CCN(c4ccccc4F)CC3)cc2nc1CC
    -3, -2, 2, -13, 0.8, 3251, 5
COc1ccc(/C=C(\C#N)C(=O)N2CCOCC2)cc1Br
    0, 4, 24, -23, -4.5, 7387, 0
Cc1cc(C)nc(NC2=NCC(=O)N2c2ccc3c(c2)OCCO3)n1
    2, 13, -4, -19, 0.1, 9180, -1
COc1cccc(OCC(O)CN2CCN(c3ccc(Cl)cc3)CC2)c1 (configuration not stated)
    4, 3, -3, -18, 3.5, 3995, 2
CCOC(=O)C1CCCN(Cc2ccc(OCc3ccccc3)cc2)C1 (configuration not stated)
    10, -3, 6, -28, 0.2, 3171, 8
O=C(COc1ccccc1/C=C1\SC(=O)NC1=O)Nc1ccccc1
    x, x, 13, -6, x, 1925, x
CCOc1ccc(S(=O)(=O)N2CCN(C(=O)c3ccc(Cl)c(S(=O)(=O)N4CCOCC4)c3)CC2)cc1
    6, 4, x, -11, 3.0, 9354, 1
COCCn1c(SCC(=O)Nc2cc(C)on2)nc2c(c1=O)SCC2
    8, 3, -8, -31, 0.9, 6347, 4
Cc1cc(NC(=O)CN(C)C)c([N+](=O)[O-])cc1C
    14, 1, -2, -15, 3.2, 4249, 4
CN(Cc1ccccc1F)Cc1cc(=O)oc2cc(O)c(Cl)cc12
    4, 1, 6, -23, 7.4, 3760, 2
Cc1ccc(C)c(NC(=O)CN(C)C(=O)c2cc(-c3cccs3)nn2-c2ccccc2)c1
    9, -4, -1, -14, 3.2, 5072, 7
O=C(NCCc1csc(-c2cccc(F)c2)n1)c1ccco1
    0, -6, 2, -28, 5.9, 5712, 8
CC(C)c1c(CN(C)C(C)Cc2ccccc2)n(C)n(-c2ccccc2)c1=O (configuration not stated)
    1, 4, x, -13, 6.7, 5729, -8
Cc1ccc(C(=O)COC(=O)CNC(=O)c2ccco2)cc1
    5, 6, -3, -36, 0.4, 20040*, 1
O=C(Nc1ccc(S(=O)(=O)N2CCCC2)cc1)c1cccs1
    3, 9, -28, -20, 4.1, 4349, 1
CC(NC(=O)CSc1nnnn1C1CC1)c1ccccc1Br (configuration not stated)
    3, -3, x, -13, 1.2, 8284, -1
Cc1ccccc1SCCNC(=O)c1ccccc1Br
    4, 9, -2, -48, 7.3, 2052, 1
S=c1[nH]nc(-c2ccco2)n1/N=C/c1ccc(Cl)c(Cl)c1
    x, x, 15, 4, x, 2353, x
CC(=NO)C1(C)N(O)C(C)(C)C(c2ccc(Br)cc2)=[N+]1[O-] (configuration not stated)
    3, 6, x, x, 1.9, x, -1
O=[N+]([O-])c1ccc(OCCCCN2CCc3ccccc3C2)cc1
    14, 12, 2, -24, 4.8, 3960, 7
O=C(NN=Cc1ccc[nH]1)c1cccc([N+](=O)[O-])c1
    -6, -7, x, x, 8.2, x, 7
Cc1cc(C)c2c3c(sc2n1)C(=O)N(C)CC(=O)N3
    5, 8, -1, -11, 5.0, 9836, -4
CCOC(=O)c1c(NC(=O)CC(C)C)sc(C(C)=O)c1C
    4, 5, 3, -20, 5.5, 10606, 18
CN1CCN(S(=O)(=O)c2cccc(C(=O)N(Cc3nnc(-c4ccccc4Cl)o3)C3CC3)c2)CC1
    3, 2, -2, -10, 5.3, 6439, 7
Cc1c(C=Nc2ccc(S(=O)(=O)N(C)C)cc2)c(O)[nH]c(=O)c1C#N
    17, 13, 9, -11, 1.4, 3111, 4
COCCn1c(SCc2ccc(F)cc2)nc2c1c(=O)[nH]c(=O)n2C
    4, 0, -6, -11, -8.0, 3086, -6
CN(C)S(=O)(=O)c1cccc(NC(=O)CCCc2nc3ccccc3c(=O)[nH]2)c1
    9, -6, -6, -16, 1.7, 7266, 8
Cc1cc(C)cc(-n2c(C)cc(/C=N/NC(=O)CN(c3c(C)cccc3C)S(C)(=O)=O)c2C)c1
    x, x, -1, -12, x, 2385, x
COc1cc(CN2CCCCCC2)c([N+](=O)[O-])cc1OC
    5, -6, -2, -33, 1.3, 4149, 0
Cc1ccc(Cn2c(C3CCCN3c3nc(C)cs3)nc3cc(C(F)(F)F)ccc32)cc1 (configuration not stated)
    x, x, 13, -16, x, 3968, x
CCCOc1ccc(NC(=O)C2CCCNC2=O)cc1 (configuration not stated)
    10, 6, -2, -19, 5.6, 8530, 4
COc1cc(C#Cc2c(-c3cncn3C)n(C)c3ccc(-c4ccc(OC)c(OC)c4)cc23)cc(OC)c1
    -5, 10, x, -21, 8.0, 4014, 29
O=C(COc1ncnc2c(Cl)cc(Cl)cc12)Nc1cc([N+](=O)[O-])ccc1Cl
    10, 1, -8, 8, 8.8, 2297, 20
CC(=NNC(=O)c1ccc(CSc2nncn2C)cc1)c1ccc(Cl)cc1
    0, 5, x, x, 4.4, x, 11
COc1cc(OC)c(S(=O)(=O)Nc2ccccc2N2CCOCC2)cc1NC(C)=O
    -8, 0, 1, -6, 2.7, 3206, 8
CCCCNC(=O)C1CCN(S(=O)(=O)c2ccc3c(c2)CC(C)N3C(=O)C2CC2)CC1 (configuration not stated)
    8, -4, -2, -38, -2.3, 5758, 9
COc1ccccc1C(=O)NC(CCSC)C(=O)NCC(c1cccs1)N1CCOCC1 (configuration not stated)
    5, 0, 3, -28, 2.9, u, 4
CCOC(=O)CSc1nc(=O)n2cccc(C)c2n1
    0, 18, -2, -2, 1.3, 3564, -1

Part of the list above, with tabs:
Compound	Mtb hypoxia inh	Mtb hypoxia inh growth	BJeLR lethal	PrP 5UTR inh	RN4220 kill	Bead autofluor	Sa ugtP lethal
COCCn1c(SCc2ccc(F)cc2)nc2c1c(=O)[nH]c(=O)n2C	4	0	-6	-11	-8.0	3086	-6
CN(C)S(=O)(=O)c1cccc(NC(=O)CCCc2nc3ccccc3c(=O)[nH]2)c1	9	-6	-6	-16	1.7	7266	8

(continued)
Below each SMILES: Mtb hypoxia inh, Mtb hypoxia inh growth, BJeLR lethal, PrP 5UTR inh, RN4220 kill, Bead autofluor, Sa ugtP lethal
CC(C)NC(=O)c1ccc2c(=O)n(Cc3ccco3)c(=S)[nH]c2c1
    4, 3, -1, -22, 7.7, 9141, -12
COc1ccccc1NC(=O)COc1ccc(C=NNC(=O)c2cccnc2)cc1
    16, 6, x, x, 3.4, x, 8
COc1ccccc1C(=O)NCCC(=O)NCC1CCCO1 (configuration not stated)
    5, 4, x, -9, 4.1, 5734, 3
Nn1c(SCC(=O)NCCc2ccc(S(N)(=O)=O)cc2)nnc1C1CCCCC1
    11, 5, x, -9, 5.2, 3415, 11
O=C(CSc1nnc(-c2ccc(O)cc2)n1Cc1ccco1)N1CCc2ccccc2C1
    1, 12, 14, -3, 5.7, 16322*, 4
O=C(NCCCN1CCN(Cc2ccccc2)CC1)C1CCN(S(=O)(=O)N2CCCC2)CC1
    9, 2, 1, 3, 1.2, 8214, 4
CCCCn1c(O)c(C(C)=NCc2ccco2)c(=O)[nH]c1=O
    5, -3, 6, -27, 0.4, 3779, 1
Cc1ccccc1OCCCCCCN1CCNCC1
    11, 1, -3, -18, 0.3, 3338, 3
CCCC(=NNC(=O)c1ccc(OC)c(OC)c1)c1ccccc1
    -2, 3, x, x, 4.2, x, 3
CC(NC(=O)c1cccc(OC2CCN(C3CCN(C)CC3)CC2)c1)c1ccccc1 (configuration not stated)
    -4, -2, -3, -5, 3.2, u, 10
CCc1cccc(NS(=O)(=O)c2c(C)nc3scc(C)n3c2=O)c1
    8, 13, 2, -13, 7.9, 3064, 11
CCCNC(=O)CCn1nc(-c2ccc(Cl)cc2)c2ccccc2c1=O
    5, 0, -1, -3, 3.4, 3659, -1
O=C(O)c1cccc(-c2nc3ccccc3[nH]2)c1
    x, x, -7, 46, 3.9, 1976, 5
COc1cccc2c(=O)c(C(=O)NCc3cccs3)c[nH]c12
    11, 8, 1, -37, 4.9, 7076, 5
CN(C)S(=O)(=O)c1cccc(-n2sc3ccccc3c2=O)c1
    -3, 7, x, -14, -4.8, 5640, 2
CC(=O)Nc1ccc(N=NC2C(=O)N(C(N)=S)N=C2C)cc1 (configuration not stated)
    23, 2, 10, -14, 4.8, 3026, 0
CC12CCC(C(=O)N3CCCCCC3)(OC1=O)C2(C)C (configuration not stated)
    x, x, -3, -14, 0.7, 4919, 7
